# Vif A3G – inhibitors of Vif binding to APOBEC3G peptide, primary screen, biochemical, TR-FRET, GST-Vif 1-94, biotin-A3G peptide, dose response retest (AID 1117319); inhibition, %; hits with a dose series show IC50 in µM; TR-FRET GST-Vif / biotin-A3G peptide binding; higher % means a stronger effect; test concentration not given here; strong numbers were not always called active; hit rate 0.57% among 260,000;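 active means above the screen mean plus three standard deviations and confirmed in dose response; inconclusive means results disagree or hit not tested in dose response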;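 further: Vif residues 1-94 fused to GST binding biotinylated APOBEC3G peptide 110-148; 0% = full assay without inhibitor and 100% = GST in place of GST-Vif; retest series ran down from 100 µM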
# Beta cell apopt – blocks beta cell apoptosis; INS-1E cytokine-induced death, ATP luminescence, 48 h; percent of positive-control rescue, neutral wells zero; protection from apoptosis, % (no concentration beside the values); hit rate 0.8% among 300,000; AID 435005;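 active means all replicates at 75% or more, or half of them and the mean; inconclusive means half reach 75% but not the mean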;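 further: 0% = cytokine-treated negative control wells and 100% = positive control rescue; higher means more ATP so stronger rescue from cytokine killing; wells of about 40 µL received 100 nL stock; the first replicate is given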
# RanGTP-Imp inh – inhibitors of RanGTP-importin-beta interaction, primary screen, biochemical, FRET, CFP-Ran, YFP-importin-beta, homogeneous; inhibition, % (concentration not given with the values); cell-free CFP-Ran/YFP-importin-beta FRET ratio; hit rate 1.1% among 300,000;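 active means most replicates above 15%; inconclusive means exactly half above 15%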;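 further: 0% = DMSO wells and 100% = Ran loaded with GDP instead of GTP; wells of about 40 µL received 100 nL stock; the first replicate is given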
# Calb FLC – C. albicans growth modulation with fluconazole. AID 1979. hit rate 0.57% among 300,000. growth inhibition, % (concentration not given with the values). C. albicans CaCi-2 (fluconazole-resistant clinical isolate) + fluconazole, Alamar Blue growth, 48 h;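 active means most replicates above 75%; inconclusive means exactly half above 75%; inactive means most below 75%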;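 further: all wells also contain fluconazole at 8 µg/ml as a sub-toxic cotreatment; 0% = median of DMSO wells and 100% = median of geldanamycin control wells; wells of about 8 µL received 7.5 nL stock; the first replicate is given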
# MLL AF4-AF9 inh – MLL-AF4/AF9 protein interaction inhibition | P42568 | AlphaScreen, biotin-AF4 peptide binding to FLAG-AF9 | inhibition, % at 10 µM | hit rate 0.47% among 350,000;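 active means every replicate reaching a set inhibition limit, whatever the replicate mean, cut at about 25% in these data; inconclusive means mean inhibition reaches that limit but some replicates miss it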;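 further: 0% = plate neutral control median and 100% = total signal loss; the record names both 10 and 1 µM as test concentration; the first replicate is given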
# Target sequence (P42568 whole entry, looked up): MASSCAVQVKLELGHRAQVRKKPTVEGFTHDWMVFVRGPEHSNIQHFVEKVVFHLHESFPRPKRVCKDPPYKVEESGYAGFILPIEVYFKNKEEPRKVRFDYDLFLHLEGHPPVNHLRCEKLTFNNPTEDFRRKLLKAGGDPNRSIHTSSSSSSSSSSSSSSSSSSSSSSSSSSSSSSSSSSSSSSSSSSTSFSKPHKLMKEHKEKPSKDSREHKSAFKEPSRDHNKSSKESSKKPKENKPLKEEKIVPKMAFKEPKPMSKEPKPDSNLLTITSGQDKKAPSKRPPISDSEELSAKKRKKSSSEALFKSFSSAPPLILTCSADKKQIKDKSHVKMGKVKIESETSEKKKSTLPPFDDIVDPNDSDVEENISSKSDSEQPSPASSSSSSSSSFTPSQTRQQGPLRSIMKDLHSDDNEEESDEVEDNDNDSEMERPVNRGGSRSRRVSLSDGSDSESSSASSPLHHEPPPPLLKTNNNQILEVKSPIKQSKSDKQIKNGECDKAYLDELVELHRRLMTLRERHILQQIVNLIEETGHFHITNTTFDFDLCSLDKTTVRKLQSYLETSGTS
# T cruzi inh – T. cruzi replication inhibition; inhibition, % (concentration not given with the values); hit rate 1.4% among 300,000; T. cruzi beta-gal in NIH3T3, luminescence, 90 h;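 active means mean inhibition across valid replicates above about 55%, limit read from the data; inconclusive means mean below that limit but half or more replicates reach it; inactive means mean below it, under half of replicates reach it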;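 further: signal also drops with host cell toxicity which is not excluded here; 0% = plate median of DMSO wells and 100% = zero luminescence signal; higher percent means less beta-gal luminescence so fewer parasites; stock transfer was 50 nL into about 50 µL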
# Ecoli rRNA inh – inhibitors of bacterial rRNA selective over humanized ribosomes | E. coli WT GFP vs humanized-ribosome RFP mutants, fluorescence, 24 h; active compounds read low; DMSO median 0, no signal -100 | GFP signal change (wild-type ribosome), % (test concentration not listed) | hit rate 1.6% among 350,000;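 active means significant combined selectivity score with lowered wild-type GFP, culture density cut under 30%, mutant RFP and density less affected; inactive means any of these conditions unmet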; further: one replicate is shown; some compounds called inactive have numbers as strong as hits
# A1 inh – inhibitors of the anti-apoptotic protein A1, read as caspase activation; MEF A1-2A-BIM cells, Caspase-Glo 3/7 luminescence, 3 h; percent of clofoctol response, vehicle zero; caspase activation, % (test concentration not listed); hit rate 0.066% among 330,000;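 active means over half of replicate activation scores above 10%, or exactly half above 10 with the replicate mean above 10; inconclusive means replicate mean below 10 yet half the replicates above 10; inactive means over half of replicates below 10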;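 further: wells of about 30 µL received 50 nL stock; many hits fall short of the cut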
# Ecoli rRNA inh OD600 – second read-out of Ecoli rRNA inh, no call of its own (marks repeat the call); OD600 change, %; measured here: OD600 growth;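 optical density of the mix in the first replicate; 0 = DMSO median and -100 = no signal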
# Ecoli rRNA inh RFP – further read-out of Ecoli rRNA inh, marked with its call; RFP signal change, %; measured here: RFP humanized mutant strains;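 first replicate; 0 = DMSO median and -100 = no signal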
# Active calls of the source: *; u = inconclusive; x = not tested or not shown; & = joins results of further samples. This is a subset; count on the stated rates, not on these rows.
SMILES,Vif A3G,Beta cell apopt,RanGTP-Imp inh,Calb FLC,MLL AF4-AF9 inh,T cruzi inh,Ecoli rRNA inh,Ecoli rRNA inh OD600,Ecoli rRNA inh RFP,A1 inh
Cc1cc(C)c2c(c1)C1(OCCO1)C(=O)N2,-3%,-8,0.5,2,-4.2,6,11,17,19,2.0
O=c1oc2c(CN3CCCCC3)c(O)ccc2c2c1CCCC2,16%,-2,8.6,-4,x,-9,x,x,x,-0.7
O=S(=O)(c1ccc(SCc2ccccc2F)nc1)N1CCCC1,-5%,-3,x,x,-0.4,x,-30,-31,-6.2,0.4
CCN(Cc1ccncc1)C(=O)c1cccs1,0%,2,1.2,0,x,-17,x,x,x,-0.9
C[C@H](CO)N1C[C@H](C)[C@@H](CN(C)S(=O)(=O)c2ccccc2)Oc2ccc(NC(=O)Nc3ccccc3)cc2C1=O,-5%,-6,x,x,3.4&-0.6,x,2&-2,-5&-8,1.6&3.5,0.5
C/C(Cl)=C\Cn1c(N2CCCC2)nc2c1c(=O)[nH]c(=O)n2C,5%,2,-3.1,-3,x,6,x,x,x,0.3
COc1ccc(NC(=O)C2=C(C)NC(=S)NC2c2ccc(O)c(OC)c2)cc1 (stereo not given),18%,1,3.0,33,-1.1,-10,10,11,0.2,0.2
Cc1nc2c([N+](=O)[O-])c(C)c(C)cc2[nH]1,-1%,1,3.7,1,1.3,-12,-2,-2,-1.9,-0.8
CNC(=O)c1ccccc1NC(=O)c1c(O)c2c([nH]c1=O)CCCC2,-7%,-2,2.6,x,x,-1,x,x,x,-0.2
Cc1ccc(C(=O)N2CCc3ccccc32)o1,-1%,1,1.6,3,x,-4,x,x,x,-8.7
CC1CCN(CCCOc2ccc(OCc3ccccc3)cc2)CC1,3%,-4,-1.3,-3,x,22,-4,-20,12,0.3
COc1ccc(-c2cc(C(F)(F)F)nc(-n3cc(Br)cn3)n2)cc1,-11%,2,u,16,x,23,x,x,x,-0.3
CCCCC1=CC2=C(c3ccco3)C(=O)C(C)(OC(=O)c3ccc(OC)cc3)C(=O)C2=CN1CCOC (stereo not given),x,-4,-7.5,14,x,1,x,x,x,1.4
COc1ccccc1CN1CC(C(=O)NCCSc2nnnn2C)CCC1=O (stereo not given),3%,5,-0.4,-1,-0.1,-19,4,12,-2.3,-0.4
CC(C)(C)N(NC(=O)c1ccccc1)C(=O)c1ccc(C(=O)N(NC(=O)c2ccccc2)C(C)(C)C)cc1,2%,-4,5.7,1,x,-1,x,x,x,0.0
O=S(=O)(Nc1ccc(-c2nc3cccnc3s2)cc1)c1ccccc1F,1%,-3,9.3,-3,-2.1,7,-8,-9,-5.1,-3.9
O=C(NCCC1=CCCCC1)C(=O)NCC1OCCCN1S(=O)(=O)c1ccccc1 (stereo not given),5%,-5,-3.4,4,x,0,x,x,x,0.7
CCOc1cc(C2C3=C(CCCC3=O)N(C)C3=C2C(=O)CCC3)cc(Cl)c1O,u,-8,6.4,1,x,11,x,x,x,0.1
CS(=O)(=O)Nc1ccccc1Oc1ccccc1,21%,-6,4.8,-2,x,-11,x,x,x,0.3
COc1cccc(CNC(=O)Cn2c(=O)c3cccn3c3ccccc32)c1,x,5,-0.6,22,0.5,9,10,17,-1.5,0.1

# 4 entries from above in another layout:
SMILES	Vif A3G	Beta cell apopt	RanGTP-Imp inh	Calb FLC	MLL AF4-AF9 inh	T cruzi inh	Ecoli rRNA inh	Ecoli rRNA inh OD600	Ecoli rRNA inh RFP	A1 inh
COc1ccccc1CN1CC(C(=O)NCCSc2nnnn2C)CCC1=O (stereo not given)	3%	5	-0.4	-1	-0.1	-19	4	12	-2.3	-0.4
CC(C)(C)N(NC(=O)c1ccccc1)C(=O)c1ccc(C(=O)N(NC(=O)c2ccccc2)C(C)(C)C)cc1	2%	-4	5.7	1	x	-1	x	x	x	0.0
O=S(=O)(Nc1ccc(-c2nc3cccnc3s2)cc1)c1ccccc1F	1%	-3	9.3	-3	-2.1	7	-8	-9	-5.1	-3.9
O=C(NCCC1=CCCCC1)C(=O)NCC1OCCCN1S(=O)(=O)c1ccccc1 (stereo not given)	5%	-5	-3.4	4	x	0	x	x	x	0.7

# Next part:
SMILES,Vif A3G,Beta cell apopt,RanGTP-Imp inh,Calb FLC,MLL AF4-AF9 inh,T cruzi inh,Ecoli rRNA inh,Ecoli rRNA inh OD600,Ecoli rRNA inh RFP,A1 inh
CC(C)NC(=O)c1cc2c(s1)CCCC2,x,-8,0.8,1,x,-7,x,x,x,-1.0
S=c1[nH]ncn1/N=C/c1cccc(Oc2ccccc2)c1,26%,2,-1.9,5,x,6,x,x,x,0.4
COc1ccc(-c2[nH]nc3oc(=O)c(CCO)c(C)c23)cc1,u,x,7.8,3,0.8,1,12,3,-1.3,-1.2
Cc1ccc(C(=O)CCC(=O)CCC(=O)O)cc1,-4%,-4,3.3,-14,x,-7,x,x,x,-0.3
OC(c1ccccc1)c1cccnc1 (stereo not given),x,1,4.6,-4,-1.7,-26,1,8,-3.9,-0.3
Cc1ccc(Nc2c([N+](=O)[O-])c(=O)oc3ccccc23)cc1,x,5,3.0,-11,1.3,-22,x,x,x,1.2
O=C(CN(C(=O)CNC(=O)c1cccs1)c1ccc2c(c1)OCCO2)NC1CCCC1,-2%,0,2.9,u,x,13,x,x,x,0.2
CCN1CCN(c2c(C(=O)c3ccc(OC)cc3)cnc3ccccc23)CC1,0%,-7,-0.4,-11,1.7,-18,9,10,-0.5,1.3
CC1Cc2cc(/C(O)=C3/C(=O)C(=O)N(Cc4cccnc4)C3c3cccc(O)c3)ccc2O1 (stereo not given),6%,0,-3.2,21,0.4,-8,-1,1,-2.5,3.9
CC(C)n1nnnc1SCC(=O)NNC(=O)C1CCCCC1,-2%,-8,11,2,2.8,-1,7,4,-6.4,-0.4
Cc1ccc(C(=O)NC(=S)Nc2ccc(-c3cc4ccccc4oc3=O)cc2)c(C)c1,1%,-4,u,6,x,0,x,x,x,0.0
COc1ccc(CCn2nnnc2C(c2ccc(C)cc2)N2CCN(C)CC2)cc1OC (stereo not given),2%,-12,-1.2,-6,x,46,x,x,x,0.0
CCCCNC(=O)C1CC(=O)N(CCc2ccc(C)cc2)C1 (stereo not given),-7%,x,0.3,-8,0.1,-6,9,1,3.4,1.1
CCCCCCNC(=O)c1cccc(-c2ccc(C)c3ccccc23)n1,-8%,-6,-1.7,3,-11,15,30,22,3.2,0.0
COc1ccc(-n2c(Cn3c(=O)sc4ccccc43)nnc2SCC(N)=O)cc1,4%,-6,5.2,-3,-1.3,-11,6,12,-0.5,1.0
CCOC(=O)c1cnc2ccc(C(=O)OC)cc2c1Nc1ccc2c(c1)OCCO2,1%,26,-0.3,14,-3.5,0,x,x,x,0.9
O=C(NCC1CCCO1)NC1CCCCC1 (stereo not given),20%,-2,u,0,x,-1,x,x,x,-0.8
Cc1ccnc(NS(=O)(=O)c2ccc(NC(=O)c3ccc(S(=O)(=O)N4CCCC4)cc3)cc2)n1,0%,1,0.6,u,-2.7,0,19,19,-1.0,-0.1
O=C(C[C@@H]1C/C=C\C[C@@H](Cc2ccc(F)cc2)C(=O)OC[C@@H](Cc2ccccc2)NC1=O)N[C@H](CO)Cc1ccccc1,x,1,x,x,4.2,x,2,4,-7.9,0.5
CS(=O)(=O)c1ccc(Cl)c(NC(=O)CN2CCN(C(=O)c3cccs3)CC2)c1,-5%,0,x,x,-0.8,x,2,7,-7.6,-0.5

# Reformatted as tab-separated lines: entries from further up
SMILES	Vif A3G	Beta cell apopt	RanGTP-Imp inh	Calb FLC	MLL AF4-AF9 inh	T cruzi inh	Ecoli rRNA inh	Ecoli rRNA inh OD600	Ecoli rRNA inh RFP	A1 inh
O=C(CN(C(=O)CNC(=O)c1cccs1)c1ccc2c(c1)OCCO2)NC1CCCC1	-2%	0	2.9	u	x	13	x	x	x	0.2
CCN1CCN(c2c(C(=O)c3ccc(OC)cc3)cnc3ccccc23)CC1	0%	-7	-0.4	-11	1.7	-18	9	10	-0.5	1.3
CC1Cc2cc(/C(O)=C3/C(=O)C(=O)N(Cc4cccnc4)C3c3cccc(O)c3)ccc2O1 (stereo not given)	6%	0	-3.2	21	0.4	-8	-1	1	-2.5	3.9

# (cont.)
SMILES,Vif A3G,Beta cell apopt,RanGTP-Imp inh,Calb FLC,MLL AF4-AF9 inh,T cruzi inh,Ecoli rRNA inh,Ecoli rRNA inh OD600,Ecoli rRNA inh RFP,A1 inh
Cc1c(C#N)c(N)nc2c3c(sc12)NC(=O)CC3c1ccc(Cl)cc1 (stereo not given),x,0,2.7,28,-12,32,-2,-5,-2.8,-2.8
COc1ccc2cc3c(N)nn(C(=O)C4CCC(C(C)(C)C)CC4)c3nc2c1 (stereo not given),0%,-27,-0.7,7,1.3,29,6,0,-3.8,-2.5
CC(C)=CC(=O)NCc1c(Cl)cccc1-n1cccc1,-7%,-9,1.6,-3,x,0,x,x,x,1.3
CC(Oc1ccc(F)cc1)C(=O)/C=C\N(C)C (stereo not given),8%,-8,1.6,-14,x,-10,x,x,x,0.5
O=C(COC(=O)c1cccc(N2C(=O)C3CC=CCC3C2=O)c1)c1ccccc1 (stereo not given),x,0,-0.2,-14,3.2,-3,9,13,4.1,-0.5
COc1cc(CNC2CCCCCC2)cc(OC)c1,2%,-14,-4.4,-27,x,-10,x,x,x,-0.7
COc1ccc(CNc2nnnn2C)cc1,x,-2,0.3,-4,-0.4,16,12,10,-4.0,0.1
COc1ccc(N2CCN(CCNC(=O)Nc3ccc([N+](=O)[O-])cc3OC)CC2)cc1,7%,7,-5.0,-5,-0.3,12,-3,0,0.2,-0.8
COc1ccc(OC)c(Nc2cc3ccccc3c(=O)[nH]2)c1,x,7,u,17,10,-21,11,11,-0.1,0.1
COC(=O)[C@@]12CCCCN1[C@H](c1ccc(-c3ccc(C(C)=O)cc3)cc1)[C@@H]1C(=O)N(C)C(=O)[C@@H]12,x,-4,1.5,2,4.8,13,8,2,-12,0.6
Cc1cccc(NC(=O)c2cccc(OC(=S)N3CCOCC3)c2)c1C,x,2,1.9,1,-2.4,-21,4,16,-2.3,0.8
O=C(O)CCC(=O)N1CCc2c([nH]c3ccccc23)C1C(F)(F)F (stereo not given),-1%,x,3.2,13,-0.7,-1,1,5,-0.6,0.1
